From PubChem BioAssay
TexasRed fluor = Total Fluorescence Counterscreen for Inhibitors of the Interaction of Thyroid Hormone Receptor and Steroid Receptor Coregulator 2; TRb/SRC2 Texas Red total fluorescence interference; Potency, µM (series often up to 106 µM), without a hit: top-dose fluorescence change, negative = quenching; hit rate 0.29% among 280,000; AID 1479, 2009; active means well fitted curve in either direction with a large enough effect; inconclusive means small, poorly fitted or top-dose-only effect
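Human TRb ligand-binding domain at 0.6 uM with 20 nM Texas Red SRC2 peptide in Tris buffer containing 1 uM T3 and 5% DMSO, incubated with compound 5 h at ambient temperature. Total fluorescence (555/632 nm) calculated as parallel + 2 × perpendicular.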
Tau fibril FP = qHTS for Inhibitors of Tau Fibril Formation, Fluorescence Polarization; Microtubule-associated protein tau (Homo sapiens), P10636; K18 P301L tau heparin fibrillization, Alexa594 FP, 6 h; Potency, µM (titrated, usually from 57.7 µM), for the others: top-dose activity, negative = inhibition, most hits filed as inhibitors; hit rate 0.39% among 280,000; further: nearly all actives have a fitted effect of over 55% in size
Target sequence (P10636 561-689 P618L limits assumed): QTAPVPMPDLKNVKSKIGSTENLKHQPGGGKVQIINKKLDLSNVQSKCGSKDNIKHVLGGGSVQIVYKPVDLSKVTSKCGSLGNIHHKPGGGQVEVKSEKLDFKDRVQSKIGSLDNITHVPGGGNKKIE
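Compound effects on tau fibrillization are measured by Alexa 594 fluorescence polarization (ex 555, em 632 nm). K18 P301L tau is used at 15 uM with 0.24 uM labeled tracer, and 20 uM heparin induces aggregation over 6 hr at 37 C.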
TRb SRC2 PPI = qHTS for Inhibitors of the Interaction of Thyroid Hormone Receptor and Steroid Receptor Coregulator 2; Thyroid hormone receptor beta (Homo sapiens), P10828; TRbeta-SRC2 peptide binding, fluorescence polarization; receptor liganded with 1 µM T3; Potency, µM (series often up to 106 µM), without a hit: at the top dose activity change, negative = inhibition, most hits filed as inhibitors; hit rate 0.065% among 280,000;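 further: plate controls were bound peptide for no effect and peptide without receptor for full effect; nearly all actives have a fitted effect of over 50% in size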
Target sequence (P10828 whole entry, looked up): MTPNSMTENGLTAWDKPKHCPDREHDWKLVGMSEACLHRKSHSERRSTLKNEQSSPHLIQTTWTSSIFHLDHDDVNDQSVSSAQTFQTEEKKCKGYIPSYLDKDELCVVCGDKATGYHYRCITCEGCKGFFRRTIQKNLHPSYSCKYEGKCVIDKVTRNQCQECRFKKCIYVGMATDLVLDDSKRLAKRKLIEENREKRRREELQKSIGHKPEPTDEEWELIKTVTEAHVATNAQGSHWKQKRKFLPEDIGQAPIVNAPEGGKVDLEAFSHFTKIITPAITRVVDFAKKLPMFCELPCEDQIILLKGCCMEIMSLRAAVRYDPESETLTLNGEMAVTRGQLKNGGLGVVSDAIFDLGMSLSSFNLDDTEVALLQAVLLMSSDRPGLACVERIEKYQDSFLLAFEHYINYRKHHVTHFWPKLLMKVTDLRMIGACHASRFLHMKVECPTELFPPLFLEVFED
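Quantitative HTS by FP: 0.6 uM TRb LBD, 20 nM labeled SRC2 20-mer, 1 uM T3, 5% DMSO; 5 hr ambient incubation; % activity per concentration and potencies from concentration series.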
Tau fluor cs = Counterscreen qHTS for Inhibitors of Tau Fibril Formation, Fluorescence Polarization | tau K18 P301L Alexa594 fluorescence, heparin fibrillization | Potency, µM (titrated, usually from 57.7 µM), for the others: at the highest dose activity change, negative = decrease | hit rate 0.93% among 280,000 | AID 1463, 2008; further: nearly all actives have a fitted effect of over 55% in size
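Human K18 P301L tau (15 uM unlabeled plus 0.24 uM Alexa 594-labeled, final) in 100 mM sodium acetate pH 7 was mixed with compound and 20 uM heparin and incubated 6 hr at 37 C.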
ALDH1A1 inh = qHTS Assay for Inhibitors of Aldehyde Dehydrogenase 1 (ALDH1A1); Purified ALDH1A1, NADH fluorescence, propionaldehyde substrate; Potency, µM (doses to about 75.3 µM), for inactives: at the highest dose activity, negative = inhibition, actives largely listed as inhibitors; hit rate 7.3% among 220,000; active means well fitted inhibition curve with a large enough effect, not every such curve was filed as active; inconclusive means small, poorly fitted or top-dose-only effect, or another doubt; inactive means no such curve, though single readings can be large or run the other way;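 further: plate controls were no enzyme wells and a reference inhibitor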
Tau ThT inhib = qHTS for Inhibitors of Tau Fibril Formation, Thioflavin T Binding. recombinant tau K18 P301L (four-repeat tau fragment), heparin-induced fibrillization, ThT fluorescence. Potency, µM (series often up to 57.4 µM), inactives show top-dose activity, negative = inhibition, actives largely listed as inhibitors. hit rate 2.1% among 270,000; further: nearly all actives have a fitted effect of over 55% in size
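Heparin-induced (20 uM) aggregation of recombinant human K18 P301L tau, 15 uM unlabeled with 0.24 uM labeled, pH 7 acetate buffer, 6 hr at 37 C with compound. Fibrils quantified by 30 uM ThT fluorescence after 1 hr ambient incubation.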
aGal spleen mod = qHTS Assay for Inhibitors and Activators of Human alpha-Galactosidase From Spleen Homogenate. Alpha-galactosidase A (Homo sapiens), P06280. human spleen homogenate, 4MU-alpha-Gal fluorescence, 40 min. Potency, µM (doses to about 80 µM), inactives show top-dose activity change, negative = inhibition, most hits filed as inhibitors. hit rate 0.008% among 240,000;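 further: 0% = enzyme with vehicle and -100% = no enzyme basal signal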
Target sequence (P06280 32-429 limits assumed): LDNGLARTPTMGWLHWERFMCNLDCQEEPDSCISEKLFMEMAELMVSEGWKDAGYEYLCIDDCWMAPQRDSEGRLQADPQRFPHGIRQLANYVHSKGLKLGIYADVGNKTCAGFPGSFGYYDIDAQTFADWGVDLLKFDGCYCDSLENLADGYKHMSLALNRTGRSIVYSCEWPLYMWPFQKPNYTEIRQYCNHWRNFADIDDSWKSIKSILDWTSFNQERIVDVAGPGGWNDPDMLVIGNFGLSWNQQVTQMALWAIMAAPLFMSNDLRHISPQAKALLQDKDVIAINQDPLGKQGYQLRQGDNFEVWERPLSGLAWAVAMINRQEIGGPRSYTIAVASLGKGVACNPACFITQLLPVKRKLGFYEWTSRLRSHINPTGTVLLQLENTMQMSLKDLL
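Human spleen homogenate (1 ug) as enzyme source, 4-methylumbelliferyl-alpha-D-galactopyranoside 1 mM final, citrate/phosphate pH 5.0 with 0.01% Tween-20. Compounds 40 min at 37C, NaOH/glycine stop; fluorescence Ex 365/Em 440, Hill-fit AC50.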
Starred values were filed as active, the others as inactive; ? = inconclusive; · = no result given; & = joins results of further samples; [ ] = dose if it differs, or a comment. Unless noted, the call rests on the fitted dose curve; in most records, active means well fitted curve in the direction sought with a large enough effect; inconclusive means small, poorly fitted or top-dose-only effect, or another doubt; inactive means no such curve, though single readings can be large; an effect the other way counts as inactive or inconclusive. Unless noted, on the % scale 0 is the no-effect control and ±100 the full control effect; potency means the concentration at half of the fitted maximal effect.

mol | TexasRed fluor | Tau fibril FP | TRb SRC2 PPI | Tau fluor cs | ALDH1A1 inh | Tau ThT inhib | aGal spleen mod
Cc1ccc(S(=O)(=O)N(C)C)cc1NC(=O)Nc1ccccc1F | -4% | -2% | 2% | -6% | 4% | -1% | 3%
Cc1nc(S/C(=C/c2ccc(OCc3ccc(C(=O)O)cc3)cc2)C(=O)O)n[nH]1 | -10% | 4% | 7% | -6% | -3% | ? | -10%
Cc1ccc(-c2nn(-c3ccccc3)c3[nH]c(=O)c(CNCc4ccccc4)cc23)cc1 | 2% | 0% | -18% | -29% | ? | -12% | -4%
COc1ccccc1OCc1nnc(SCC(=O)Nc2ccc(C)cc2)n1C | 1% | 3% | -8% | -5% | -8% | -5% | -4%
CSc1nnc2c(n1)[nH]c1c(C)cccc12 | -6% | -2% | -10% | 3% | -4% | -16% | -6%
Cc1ncc([N+](=O)[O-])n1CC(C)O (stereo unspecified) | -1%&-3%&-1% | 1%&6%&3% | 1%&4%&-2% | -18%&-3%&-8% | 4%&-14% | -9%&-8%&7% | -4%&-11%&-8%
N#Cc1c(NC(=O)CSCC(=O)O)sc2c1CCCC2 | 1% | 5% | -5% | 3% | -14% | -6% | -1%
O=C(NC1CCCCC1)C1CCN(c2cnccn2)CC1 | 1% | 1% | 2% | 1% | 15% | -1% | 12%
COC(=O)C1=NN(c2ccccc2)C2C(=O)N(c3ccccc3OC)C(=O)C12 (stereo unspecified) | -2% | 5% | 5% | 0% | 6% | 3% | 6%
CC(C)CCN1CCN(C/C=C/c2ccco2)CC1CCO (stereo unspecified) | 3% | -16% | -2% | -10% | 28µM* | ? | -6%
COC(=O)c1sc(SC)c2c1CC(C)(C)C/C2=N/O | 3% | 0% | -1% | -19% | -1% | -8% | 4%
c1ccc(-c2nc(-c3ccccn3)no2)cc1 | 3% | 11% | -4% | 5% | 13% | -2% | 2%
CC1=C(C(=O)Nc2cc(-c3cccc(F)c3)[nH]n2)C2(CCCCC2)OC1=O | 0% | 7% | 6% | ? | 4% | -17% | -1%
Clc1ccccc1-c1nc(-c2ccccc2)n[nH]1 | 0% | 5% | 2% | -9% | 12% | -13% | -1%
Cc1ccccc1Nc1nc(-c2ccccc2)c(C(=O)Nc2cccnc2)s1 | -2% | ? | 5% | ? | -15% | ? | -3%
Nc1ccc(C(=O)Oc2ccc([N+](=O)[O-])cc2)cc1 | 2% | 9% | 10% | -27% | -5% | -18% | -2%
Cc1ccc(C2CC(=O)NC3=C2C(=O)CCC3)cc1Br (stereo unspecified) | -1% | -3% | -3% | -12% | 5% | -14% | -4%
COc1ccc(C(=O)Oc2coc(CSc3nnc(NC(=O)c4cccs4)s3)cc2=O)cc1 | -2% | 1% | -9% | 2% | ? | 4% | 6%
Cc1ccc(S(=O)(=O)N2CCCCC2)cc1C(=O)Nc1ccc(S(=O)(=O)Nc2ncccn2)cc1 | -1% | -2% | 3% | -6% | 16% | -10% | 11%
Cc1cc2ncc(-c3ncc(C(F)(F)F)cc3Cl)cn2n1 | 2% | 13% | -8% | -14% | 7% | -20% | 8%
COc1ccc(-n2nc3c(=O)[nH][nH]c3cc2=O)cc1 | -6% | -1% | 3% | -20% | -6% | ? | -6%
Cc1cc(NC(=O)c2ccc(-c3ccc(F)c(Cl)c3)o2)no1 | -1% | -13% | 3% | -6% | ? | -5% | 1%
CN1CCN(C(=O)/C=C\c2ccc(Cl)cc2)CC1 | 0% | 1% | -1% | 8% | 3% | 6% | 3%
Cn1c(SCC(=O)N2CCCc3ccccc32)nc2ccccc2c1=O | -3% | -7% | -10% | -9% | ? | -14% | 4%
Nc1nonc1C(=O)N/N=C/c1ccc(-c2cccc(C(=O)O)c2)o1 | -4% | 3% | -5% | -6% | ? | ? | 1%
Cc1cc(C)nc(NS(=O)(=O)c2ccc(N)cc2)n1 | -2% | 7%&-3%&-1% | 3% | -3%&-8%&-5% | -6% | -4%&-9%&-3% | 2%
N#Cc1c(SCc2ccccc2)nc(N2CCOCC2)c2c1CCCC2 | 3% | -3% | 9% | -5% | ? | 9% | 5%
CN1CCN(CC/C=C2/c3ccccc3Sc3ccc(S(=O)(=O)N(C)C)cc32)CC1 | -4%&0% | -4%&5% | 2%&2% | -16%&-4% | -5% | -14%&-10% | 5%&-2%
COc1ccc(CNc2nc(NCc3ccc(OC)cc3)n(C(=O)c3ccccc3[N+](=O)[O-])n2)cc1 | -9% | 0% | 2% | ? | 20µM* | ? | 9%
N#C/C(=C/c1ccc(Oc2ccc([N+](=O)[O-])cn2)cc1)C(=O)N1CCOCC1 | 0% | 7% | -6% | 4% | 1% | -15% | 1%
Cc1cccc(-c2n[nH]c(=S)n2/N=C/C=C/c2ccco2)c1 | -2% | -9% | 3% | ? | · | ? | 0%
O=C(Nc1ccccc1Cl)c1ccccc1S(=O)(=O)c1ccccc1[N+](=O)[O-] | 1% | -1% | 6% | -13% | 4% | -10% | -2%

Look-ups from the results shown:
For TexasRed fluor, N#Cc1c(SCc2ccccc2)nc(N2CCOCC2)c2c1CCCC2 is listed with 3%
For TRb SRC2 PPI, Nc1nonc1C(=O)N/N=C/c1ccc(-c2cccc(C(=O)O)c2)o1 is listed with -5%

(listing goes on)
mol | TexasRed fluor | Tau fibril FP | TRb SRC2 PPI | Tau fluor cs | ALDH1A1 inh | Tau ThT inhib | aGal spleen mod
COc1ccc2cc(C#N)c(N3CCN(Cc4nnnn4CCC(C)C)CC3)nc2c1 | 0% | -8% | -5% | -26% | ? | -24% | -13%
COc1ccc(C2C(C(=O)N3CCN(C)CC3)c3cc(OC)c(OC)cc3C(=O)N2C)cc1 (stereo unspecified) | -1% | 8% | 1% | -8% | -4% | -8% | 2%
C#CCNC(=O)C1CCN(c2ccc(S(=O)(=O)N3CCOCC3)cc2Cl)CC1 | -1% | 7% | 1% | -7% | -3% | -11% | 6%
COc1ccccc1S(=O)(=O)Nc1ccc2cn[nH]c2c1 | -2%[53 µM] | 1% | -9%[53 µM] | 11% | 10% | 12% | 1%
O=C(NCc1ccco1)c1cc2c(s1)CSC2 | -12% | ? | -10% | -18% | ? | 28µM* | 6%
Fc1ccc(-n2ncc3c(SCc4cccnc4)ncnc32)cc1 | -1% | -1% | 3% | -11% | 0% | -18% | 2%
CCSc1nc(N2CCOCC2)c2c(c1C#N)CCCC2 | -1% | 1% | -13% | -12% | 22µM* | -17% | -11%
Cc1ccc(O)c(NC(=S)NC(=O)c2ccccc2Cl)c1 | 0% | 8% | -3% | -30% | ? | ? | -6%
Cc1ccc(-n2[nH]c(C)c(/C=N/Nc3ccc([N+](=O)[O-])cc3[N+](=O)[O-])c2=O)cc1C | -5% | 20µM* | -6% | 4.5µM*[quencher] | ? | 2.2µM* | -14%
COc1cc(C(=O)OC2CCCCC2=O)cc(OC)c1C (stereo unspecified) | 0% | -3% | 7% | -3% | ? | -9% | -1%
Cc1cc(N/N=C/c2ccccc2[N+](=O)[O-])nc(-n2nc(C)cc2C)n1 | -4% | 11% | 3% | -19% | · | ? | 2%
CN(C)S(=O)(=O)NCc1ccc2c(c1)OCO2 | -5% | -10% | -3% | -1% | 0% | -5% | -1%
COc1ccccc1N1CCN(Cc2nc3ccccc3c(=O)n2CC(C)=O)CC1 | -3% | -9% | 1% | -9% | -2% | -12% | 7%
CC1=C(C(=O)Nc2cccnc2)C(c2ccncc2)n2nnnc2N1 (stereo unspecified) | 1% | 2% | -7% | -9% | -5% | -6% | ?
Cc1ccc(NC(=O)c2ccc(N/N=C/c3cccc(O)c3)c([N+](=O)[O-])c2)cc1 | 5% | 2% | -3% | ? | 13% | 1.6µM* | 6%
CS(=O)(=O)N1CC(C(=O)O)Oc2ccc(CC(=O)O)cc21 (stereo unspecified) | -6% | -12% | -7% | -2% | 6% | 4% | -4%
O=C(/C=C/c1ccc(O)c(O)c1)O[C@H]1C[C@@](O)(C(=O)O)CC(O)C1O (stereo partly specified) | -1% | -8% | -7% | -12% | -2% | -13% | -4%
Cc1nnc(NC(=O)C2C3C=CC(O3)C2C(=O)O)s1 (stereo unspecified) | -1% | 4% | -10% | 2% | 28µM* | 7% | 9%
CCCN(CCC)C(=S)NC(=O)c1ccc(Cl)cc1Cl | -1% | 0% | -12% | -6% | 9% | -15% | 8%
Cc1cc2c(cc1S(=O)(=O)N(C)c1ccccc1)NC(=O)CO2 | -3% | 0% | -9% | 1% | 18% | 4% | 1%
Cc1ccc(-n2cc(C(=O)c3ccc(F)cc3)nn2)cc1Cl | -3% | -6% | -4% | -6% | 11% | -13% | 4%
CCOc1ccc(N2C(=O)/C(=C/c3ccc(C)o3)N(C)C2=S)cc1 | 3% | -11% | -6% | -3% | 7.9µM* | ? | 5%
O=C(CCCN1CCC(O)(c2ccc(Br)cc2)CC1)c1ccc(F)cc1 | -1%[53 µM] | · | 9%[53 µM] | · | 8%[20.9 µM] | · | 9%[29.1 µM]
N#Cc1cnc(SCC(=O)Nc2ccccc2C(F)(F)F)nc1N | -2% | 2% | 2% | 0% | ? | 1% | 3%
O=S(=O)(c1cccc2cccnc12)N1CCOCC1 | -3% | 6% | -7% | 5% | -15% | -3% | 2%
Cc1ccc(S(=O)(=O)N(C)CCCC(=O)NC(C)(C)CO)cc1 | -1% | 6% | -8% | 6% | 3% | 2% | 4%
COc1cccc(C(=O)COc2ccccc2N2C(=O)C3C4C=CC(C4)C3C2=O)c1 (stereo unspecified) | 3% | -4% | 1% | -6% | 1% | -10% | -7%
N#Cc1cnc(SCC(=O)NNC(=O)COc2cccc3ccccc23)nc1N | 1% | -6% | -4% | -5% | -11% | -2% | 7%
O=C(Nc1cccc(-c2nc3ccccc3o2)c1)c1cccnc1 | -3% | -10% | 4% | -11% | 7% | -7% | 4%
COC(=O)c1cccc(CN2C(=O)SC(Nc3ccc(C)cc3)C2=O)c1 (stereo unspecified) | 1%&-1% | -10%&-3% | 0%&-2% | ? | · | ? | 6%
COc1ccccc1/C=C/C=N/n1c(COc2ccccc2)n[nH]c1=S | -5% | ? | -6% | -18% | ? | -13% | -2%
N#CC(c1ccccc1F)(c1ncc(C(F)(F)F)cc1Cl)N1CCOCC1 (stereo unspecified) | 0% | 7% | -5% | 8% | 7% | 3% | -4%

Not all compounds are listed. The share of hits here may be higher or lower than overall.
